# From PubChem
# MLL AF4-AF9 inh = blocks AF4 peptide binding to human AF9 | AlphaScreen, biotin-AF4 peptide binding to FLAG-AF9 | inhibition, % at 10 µM | P42568 | 0.47% of 350,000 active;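 active = every replicate reaching a set inhibition limit, whatever the replicate mean, cut at about 25% in these data; inconclusive = mean inhibition reaches that limit but some replicates miss it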;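 note: 0% = plate neutral control median and 100% = total signal loss; the record names both 10 and 1 µM as test concentration; the first replicate is given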
# Target sequence (P42568 whole entry, looked up): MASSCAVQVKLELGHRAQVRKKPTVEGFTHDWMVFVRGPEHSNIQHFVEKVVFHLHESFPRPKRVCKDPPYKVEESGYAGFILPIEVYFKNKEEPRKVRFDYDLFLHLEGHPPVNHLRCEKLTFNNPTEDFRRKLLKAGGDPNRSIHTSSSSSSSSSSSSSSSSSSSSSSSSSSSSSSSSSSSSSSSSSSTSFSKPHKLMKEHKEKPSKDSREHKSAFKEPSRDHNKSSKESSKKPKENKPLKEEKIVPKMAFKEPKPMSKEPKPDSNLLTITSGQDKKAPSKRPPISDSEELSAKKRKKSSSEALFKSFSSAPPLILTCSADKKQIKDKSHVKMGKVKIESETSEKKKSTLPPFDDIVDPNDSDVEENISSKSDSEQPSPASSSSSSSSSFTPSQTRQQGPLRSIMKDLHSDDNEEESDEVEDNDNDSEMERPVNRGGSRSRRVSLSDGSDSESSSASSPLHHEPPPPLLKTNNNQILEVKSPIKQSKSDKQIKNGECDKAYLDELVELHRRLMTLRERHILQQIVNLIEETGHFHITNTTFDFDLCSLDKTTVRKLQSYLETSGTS
# Calb FLC = C. albicans growth modulation with fluconazole; 0.57% of 300,000 active; growth inhibition, % (no concentration beside the values); C. albicans CaCi-2 (fluconazole-resistant clinical isolate) + fluconazole, Alamar Blue growth, 48 h; AID 1979;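 active = most replicates above 75%; inconclusive = exactly half above 75%; inactive = most below 75%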;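 note: all wells also contain fluconazole at 8 µg/ml as a sub-toxic cotreatment; 0% = median of DMSO wells and 100% = median of geldanamycin control wells; wells of about 8 µL received 7.5 nL stock; the first replicate is given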
# RanGTP-Imp inh = disruptors of Ran-importin-beta complex formation – biochemical, FRET, CFP-Ran, YFP-importin-beta, homogeneous, primary screen. inhibition, % (concentration not given with the values). 1.1% of 300,000 active. AID 2216. cell-free CFP-Ran/YFP-importin-beta FRET ratio;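 active = most replicates above 15%; inconclusive = exactly half above 15%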;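 note: 0% = DMSO wells and 100% = Ran loaded with GDP instead of GTP; wells of about 40 µL received 100 nL stock; the first replicate is given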
# T cruzi inh = blocks replication of Trypanosoma cruzi | T. cruzi beta-gal in NIH3T3, luminescence, 90 h | inhibition, % (concentration not given with the values) | 1.4% of 300,000 active | AID 1885;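 active = mean inhibition across valid replicates above about 55%, limit read from the data; inconclusive = mean below that limit but half or more replicates reach it; inactive = mean below it, under half of replicates reach it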;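 note: signal also drops with host cell toxicity which is not excluded here; 0% = plate median of DMSO wells and 100% = zero luminescence signal; higher percent means less beta-gal luminescence so fewer parasites; stock transfer was 50 nL into about 50 µL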
# Beta cell apopt = beta cell apoptosis inhibition | INS-1E cytokine-induced death, ATP luminescence, 48 h; percent of positive-control rescue, neutral wells zero | protection from apoptosis, % (no concentration beside the values) | 0.8% of 300,000 active;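 active = all replicates at 75% or more, or half of them and the mean; inconclusive = half reach 75% but not the mean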;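 note: 0% = cytokine-treated negative control wells and 100% = positive control rescue; higher means more ATP so stronger rescue from cytokine killing; wells of about 40 µL received 100 nL stock; the first replicate is given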
# ALR H2O2 inh = blocks human ALR sulfhydryl oxidase activity. P55789. purified ALR, DTT oxidation, H2O2 HRP-luminol luminescence. inhibition, % (concentration not given with the values). 3.8% of 290,000 active. AID 485317;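 active = mean and each replicate at 75% or more; inconclusive = only one of the two met; inactive = neither met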;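 note: stock transfer was 7.5 nL into about 7.5 µL; 0% = neutral wells and 100% = wells with inactivated enzyme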
# Target sequence (P55789 whole entry, looked up): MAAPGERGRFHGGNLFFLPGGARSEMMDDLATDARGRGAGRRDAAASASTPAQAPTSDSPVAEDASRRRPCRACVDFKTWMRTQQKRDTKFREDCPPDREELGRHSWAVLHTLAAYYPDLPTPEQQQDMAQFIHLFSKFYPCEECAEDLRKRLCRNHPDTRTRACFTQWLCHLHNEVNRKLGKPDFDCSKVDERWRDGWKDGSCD
# rRNA inh HTS = inhibitors of bacterial rRNA selective over humanized ribosomes | E. coli WT GFP vs humanized-ribosome RFP mutants, fluorescence, 24 h; stronger effect = lower value; DMSO median 0, no signal -100 | GFP signal change (wild-type ribosome), % (test concentration not listed) | 1.6% of 350,000 active | AID 720706;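 active = significant combined selectivity score with lowered wild-type GFP, culture density cut under 30%, mutant RFP and density less affected; inactive = any of these conditions unmet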; note: one replicate is shown; some compounds called inactive have numbers as strong as hits
# FGF22 binding = binders of recombinant human FGF22 by thermal shift; SYPRO orange fluorescence; percent of sucrose octasulfate shift, DMSO zero; calls only at 9.99 µM; 1.5% of 340,000 active;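 active = melting point raised past a set limit in the mean and every replicate; inconclusive = no clear call; three in four hits are not shown here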
# Target sequence (Q9HCT0 whole entry, looked up): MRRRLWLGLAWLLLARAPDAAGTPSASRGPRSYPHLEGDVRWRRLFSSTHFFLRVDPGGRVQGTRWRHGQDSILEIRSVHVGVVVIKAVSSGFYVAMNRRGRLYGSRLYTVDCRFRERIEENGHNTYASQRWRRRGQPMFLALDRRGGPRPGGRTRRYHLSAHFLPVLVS
# rRNA inh HTS OD600 = recorded beside rRNA inh HTS, whose call it bears; OD600 change, %; measured here: OD600 growth;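 optical density of the mix in the first replicate; 0 = DMSO median and -100 = no signal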
# rRNA inh HTS RFP = second read-out of rRNA inh HTS, no call of its own (marks repeat the call); RFP signal change, %; measured here: RFP humanized mutant strains;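 first replicate; 0 = DMSO median and -100 = no signal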
# * hit, by the source's call; i = inactive; ? = inconclusive; nt = no result given.
SMILES,MLL AF4-AF9 inh,Calb FLC,RanGTP-Imp inh,T cruzi inh,Beta cell apopt,ALR H2O2 inh,rRNA inh HTS,rRNA inh HTS OD600,rRNA inh HTS RFP,FGF22 binding
O=C(NCc1cccnc1)c1nnc(Cc2ccc(F)cc2)o1,9.2,-6.8,-0.2,-17.5,-4.1,-23.3,3.3,8.8,0.1,i
COc1ccc(C(=O)c2ccc(Cl)c([N+](=O)[O-])c2)cc1,2.6,2.6,2.0,-15.8,53.5,96.7*,-13.8,-15.8,-2.2,i
O=C(Cc1ccc([N+](=O)[O-])cc1)Nc1cccc(C(=O)N2CCOCC2)c1,-2.1,nt,nt,nt,2.8,2.7,-17.1,-7.6,-4.6,i
CCOCCCn1c(=NC(C)=O)c(C#N)cc2c(=O)n3cccc(C)c3nc21,-13.7,-11.8,123.4*,-0.2,11.2,nt,0.0,-5.9,4.0,i
Cc1ccccc1Oc1ncnc2sccc12,nt,-0.8,-7.1,-5.2,-3.2,-6.1,nt,nt,nt,nt
Oc1ccc(N=Nc2n[nH]c(-c3ccccc3)n2)cc1,nt,20.2,-2.5,7.6,0.7,?,nt,nt,nt,nt
CCc1ccc(-c2nnn(Cc3nc4ccccc4s3)n2)cc1,nt,-1.4,?,5.4,-7.0,-12.2,nt,nt,nt,nt
COc1cccc(-c2nc(CS(=O)CC(=O)NC3CCCC3)c(C)o2)c1 (stereo not drawn),2.8,-0.7,-4.4,-1.9,-0.8,98.6*,1.2,2.0,1.1,i
O=C(O)COc1ccc(/C=C/c2nc(-c3ccccc3O)n[nH]2)cc1,-6.2,-3.0,-2.1,-10.6,nt,28.0,-16.6*,6.4*,0.9*,i
Cc1cccc(C)c1NC(=O)N1CCN(C2CCCCC2)CC1,nt,-3.6,2.2,3.6,-2.9,-0.5,nt,nt,nt,nt
COc1ccc(/C=C(\NC(=O)c2ccccc2)C(=O)NNC(=O)CCN2CCOCC2)cc1,0.1,14.1,-4.0,-13.5,-1.8,1.8,16.5,23.5,4.4,i
O=C(Nc1ccccc1)N(c1ccccc1)C1C=CS(=O)(=O)C1 (stereo not drawn),0.4,6.0,1.0,-1.9,-5.1,8.5,7.2,9.4,-5.2,i
CSc1cccc(NC(=O)COC(=O)c2ccccn2)c1,1.0,nt,nt,nt,-4.1,nt,1.3,3.3,-2.2,i
COC(=O)C1C(=O)C2=C(CC1C)NC(=O)CC2c1cccc(C)c1 (stereo not drawn),nt,-1.9,6.1,2.2,12.8,-1.7,nt,nt,nt,nt
Cc1cc(N(C)Cc2ccccc2)nc(-c2ccccc2)n1,nt,0.4,-1.0,4.4,-3.6,nt,nt,nt,nt,nt
CC12CCC(C(=O)N(c3ccccn3)c3ccccn3)(OC1=O)C2(C)C (stereo not drawn),nt,-2.0,-2.7,-7.5,-5.0,-5.0,nt,nt,nt,nt
CC(=O)Nc1cc(Cl)ccc1OS(=O)(=O)c1ccc(C)cc1,nt,?,-2.9,-8.6,-0.9,8.4,nt,nt,nt,nt
CCOC(=O)c1cc(NC(=O)CNCC(c2ccccc2)N(C)C)cc(C(=O)OCC)c1 (stereo not drawn),3.5,-1.1,?,24.3,-2.7,nt,0.3,-15.7,12.3,i
Cc1cc(C)cc(NC(=O)CCc2nc3sc4c(c3c(=O)[nH]2)CCCC4)c1,-11.0,-1.0,-1.8,-4.5,nt,31.5,4.2,8.8,-0.5,i
CCOC(=O)C1CCCN(C(=O)c2ccc3c(c2)N(C)C(=O)/C(=C/c2ccccc2Cl)S3)C1 (stereo not drawn),15.0,19.6,5.0,9.2,6.8,-0.3,-2.3,-14.9,2.9,i
CCn1c(COc2ccccc2C)nnc1SCC(=O)N1CCC(C)CC1,nt,-10.8,-1.4,6.1,-5.1,-2.2,nt,nt,nt,nt
O=C(CSc1nc2ccccc2c(=O)[nH]1)Nc1ccc([N+](=O)[O-])cc1,-1.0,nt,nt,nt,-3.6,nt,4.9,19.9,3.1,i
CCC(Oc1ccccc1)C(=O)Nc1ccccc1C(=O)N1CCCCC1 (stereo not drawn),-1.0,-3.7,0.6,2.6,-4.2,16.7,-0.1,-10.8,3.8,i
COc1ccc(C(=O)NNC(=S)Nc2ccccc2)cc1,-6.1,6.1,1.5,-18.9,-1.2,49.7,6.7,0.8,-0.7,i
O=C(NC1(C(F)(F)F)C(=O)Nc2c1c(=O)[nH]c(=O)n2Cc1ccco1)C1CCCCC1 (stereo not drawn),nt,-0.3,-1.9,-9.1,-1.5,0.2,nt,nt,nt,nt
COc1ncc(-c2ccc3c(c2)S(=O)(=O)c2cccc(C(=O)NCc4ccco4)c2C3=O)cn1,0.8,nt,nt,nt,-2.4,5.8,2.9,0.3,-1.2,i
Cc1cc([N+](=O)[O-])ccc1NCc1ccco1,4.6,-45.4,-3.7,-0.1,1.9,0.8,10.6,9.9,0.2,i
CCc1nc2oc3ccccc3c(=O)c2c(=O)n1Cc1ccc(OC)cc1,nt,4.6,1.6,-1.0,3.2,5.6,nt,nt,nt,nt
O=C(CNC(=S)N(Cc1ccccc1F)C1CCCCC1)NCCN1CCOCC1,-0.3,34.5,-1.8,-2.4,1.2,-1.6,-10.5,0.2,1.9,nt
CCC(CC)C(=O)NCCc1cc2c(C)ccc(C)c2[nH]c1=O,-3.5,0.9,3.1,-22.1,nt,29.1,0.6,3.3,-5.5,i
Cc1cc(=O)c2ccc3ccccc3c2[nH]1,nt,-3.7,2.1,1.3,-2.7,-18.6,nt,nt,nt,nt
Cc1ccc(-c2nnc(NC(=O)C3=COCCO3)o2)c(C)c1,-23.1,13.5,-0.5,-15.5,-1.9,nt,5.5,0.3,-1.1,i
Cc1cc(-c2ccccc2)[nH]c(=O)c1S(=O)(=O)c1ccccc1,nt,-6.4,-2.5,5.0,-2.1,-4.0,nt,nt,nt,nt
COc1ccccc1C1=NC(c2ccccc2)CN1c1ccccc1 (stereo not drawn),-15.8,-4.9,-2.5,11.5,7.3,16.9,25.2,25.1,2.7,i
COCCCNS(=O)(=O)c1ccc2[nH]c3c(c2c1)CCCCC3,4.6,10.5,?,0.9,0.8,-7.2,-8.0,-4.9,5.2,i
Cc1cc(C(=O)OCC(=O)NC(C)c2ccccc2)c(C)o1 (stereo not drawn),1.9,-6.0,4.4,-16.2,-10.8,-2.0,12.2,12.7,3.0,i
O=C(N/N=C/c1ccccc1OC(=O)c1ccc2c(c1)OCO2)c1ccccc1,6.0,6.8,1.1,-33.5,-8.8,nt,5.5,-7.4,-1.6,i
O=C(Nc1cccnc1)c1ccc(F)cc1,nt,4.3,-0.5,-8.7,-3.3,-11.5,nt,nt,nt,nt
Cc1onc(-c2ccccc2)c1C(=O)Nc1nnc(-c2ccncc2)s1,nt,55.2,0.6,-3.6,7.4,nt,nt,nt,nt,nt
COc1ccccc1N1CCN(CCN2C(=O)CC3(CCCC3)CC2=O)CC1,-37.4,-9.5,5.4,0.0,nt,66.6,-15.4,-15.9,2.5,i
CC(=O)n1cc(/C=N/NC(=O)c2ccc([N+](=O)[O-])cc2)c2ccccc21,-2.3,-7.5,5.3,-12.7,4.9,-6.2,-1.1,0.2,-2.1,i
COc1ccccc1NC(=O)CSc1nnc(CNC(=O)c2ccco2)n1C,-0.4,1.8,1.0,-11.9,2.4,-7.9,4.3,6.9,0.1,i
CCOC(=O)C[C@H]1c2ccccc2S(=O)(=O)N1Cc1cccc(C(F)(F)F)c1,0.7,-13.8,2.1,0.2,-4.4,-6.0,-25.5,-51.0,5.7,i
C=CCNC(=O)NC(=O)CSc1nc2cc([N+](=O)[O-])ccc2n1-c1cccc(C(F)(F)F)c1,-0.7,-5.9,-2.7,16.5,11.6,-1.0,6.1,8.2,2.9,i
CCOc1ccc(NS(=O)(=O)c2ccc(C(=O)NCC(C)(C)N3CCOCC3)cc2)cc1,2.7,-1.8,1.8,0.0,4.1,0.1,7.3,0.3,0.3,i
CCCOC(=O)C1C2C=CC3(CN(c4ccc(Cl)c(F)c4)C(=O)C13)O2 (stereo not drawn),-1.9,8.8,3.2,-13.6,-3.7,-5.4,2.0,2.6,-0.6,i
O=C(O)c1n[nH]c2c1CC(C1CCCCC1)CC2 (stereo not drawn),4.4,nt,nt,nt,0.2,23.5,-33.2,-46.5,-19.9,i
CCN1CCCC1Cn1cnc2c([nH]c3ccc(C)cc32)c1=O (stereo not drawn),nt,0.4,0.5,13.7,-7.8,-6.8,nt,nt,nt,nt
Nn1c(SC/C=C/c2ccccc2)nnc1-c1ccco1,nt,39.9,3.4,-3.4,-2.5,0.7,nt,nt,nt,nt
O=C(NCc1ccco1)C(=O)c1cn(CC(=O)N2CCCCC2)c2ccccc12,1.9,-11.8,nt,nt,2.8,-60.6,10.5,-0.3,3.1,i
COc1ccc(-n2c(-c3ccccc3)cc3c2CCCC3=O)cc1,-32.1,-9.0,2.5,36.6,4.8,0.7,-51.8,-63.4,-29.8,i
O=C(c1cc(S(=O)(=O)N2CCN(c3ccccc3)CC2)ccc1Cl)N1CCCC(C(F)(F)F)C1 (stereo not drawn),-6.8,-7.5,7.3,11.2,61.0,-1.7,2.5,2.5,1.2,i
COCC(C)NS(=O)(=O)c1ccc(OC)cc1 (stereo not drawn),nt,-3.0,0.5,1.8,-1.2,-6.3,nt,nt,nt,nt
CCN(CC)S(=O)(=O)c1cccc(-c2nnc(SCC(N)=O)n2C)c1,-4.3,4.4,-0.5,-10.3,2.3,0.1,12.4,0.5,-2.7,i
Cc1c(-c2nc(N)nc(Nc3ccccc3F)n2)oc2ccccc12,nt,14.5,nt,18.8,-4.8,-2.4,nt,nt,nt,nt
Cc1oc(-c2ccccc2)cc1C(=O)Nc1cccc(/C=C/C(=O)O)c1,0.9,21.4,2.9,-31.9,nt,nt,-39.0,-39.2,-8.2,i
CCCCN(C(=O)c1[nH]c(C)c(C(C)=O)c1C)c1c(N)n(CCCC)c(=O)[nH]c1=O,6.5,-10.0,-5.1,-2.7,0.7,-2.7,7.3,1.4,-0.4,i
CCCNC(=O)C(Cc1ccccc1)NC(=O)Cc1ccccc1 (stereo not drawn),-0.6,nt,nt,nt,0.0,2.0,18.9,9.3,-3.6,i
Fc1ccccc1OCCCCSc1ncccn1,nt,8.3,-2.9,-14.3,2.1,-15.9,nt,nt,nt,nt
O=C(NC(Cc1c[nH]c2ccccc12)C(=O)O)/C(=C/c1ccc2c(c1)OCO2)NC(=O)c1ccccc1 (stereo not drawn),-0.9,2.0,5.4,3.9,nt,nt,15.7,15.1,0.9,i
CCOC(=O)COc1c(Cl)cc(C2NC(=S)NC(c3ccccc3)=C2C(C)=O)cc1OC (stereo not drawn),nt,2.7,9.0,0.1,-11.7,-1.2,nt,nt,nt,nt
COc1ccc(C2C(C#N)=C(C)NC(C)=C2C(=O)OC(C)C)c(OC)c1 (stereo not drawn),-2.8,20.4,0.8,12.6,0.9,8.8,-23.9,-25.1,2.9,i
CCn1ncc(C(=O)Nc2ccccc2C)c1C,nt,-6.0,-1.5,3.4,-4.5,-1.9,nt,nt,nt,nt

# An excerpt. The share of hits here may be higher or lower than overall.
